High-throughput results as filed in PubChem BioAssay.
LANA-H2A inh: blocks KSHV LANA binding to histone H2A/H2B | Q9QR71 | cell-free LANA-H2A/H2B peptide, fluorescence polarization | inhibition, % (no concentration beside the values) | actives 0.6% (n = 320,000) | AID 2629; in the data active means inhibition mostly above about 10%, no sharp cut-off; inactive means mostly below about 6.7%;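 further: stock transfer was 7.5 nL into about 10 µL; 0% = median of vehicle wells and 100% = median of positive control wells; one replicate is shown; the record names a cut of 25% in any replicate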
ALR H2O2 inh: inhibitors of human sulfhydryl oxidase ALR | actives 3.8% (n = 290,000) | AID 485317 | purified ALR, DTT oxidation, H2O2 HRP-luminol luminescence | inhibition, % (no concentration beside the values);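 active means mean and each replicate at 75% or more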;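 further: stock transfer was 7.5 nL into about 7.5 µL; 0% = neutral wells and 100% = wells with inactivated enzyme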
Target sequence (P55789 whole entry, looked up): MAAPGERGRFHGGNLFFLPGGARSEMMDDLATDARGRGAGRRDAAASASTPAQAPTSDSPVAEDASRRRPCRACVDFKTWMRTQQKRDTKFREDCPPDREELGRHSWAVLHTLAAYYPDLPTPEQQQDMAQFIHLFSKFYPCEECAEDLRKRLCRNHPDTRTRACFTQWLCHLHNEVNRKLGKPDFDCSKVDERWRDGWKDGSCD
Beta2AR agonist: agonists of human beta-2 adrenergic receptor inducing internalization | response, % (no concentration beside the values) | AID 504454 | Am2.2-beta2AR cells, FAP receptor internalization, flow cytometry; reference of the scale not given here | P07550 | actives 0.43% (n = 340,000);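 active means response above a set limit, near 3 SD of response in nonfluorescent compounds, cut at about 42% in these data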;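 further: stock transfer was 100 nL into about 11 µL; a reference agonist was the positive control; negative values mostly stem from fluorescent compounds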
Target sequence (P07550 whole entry, looked up): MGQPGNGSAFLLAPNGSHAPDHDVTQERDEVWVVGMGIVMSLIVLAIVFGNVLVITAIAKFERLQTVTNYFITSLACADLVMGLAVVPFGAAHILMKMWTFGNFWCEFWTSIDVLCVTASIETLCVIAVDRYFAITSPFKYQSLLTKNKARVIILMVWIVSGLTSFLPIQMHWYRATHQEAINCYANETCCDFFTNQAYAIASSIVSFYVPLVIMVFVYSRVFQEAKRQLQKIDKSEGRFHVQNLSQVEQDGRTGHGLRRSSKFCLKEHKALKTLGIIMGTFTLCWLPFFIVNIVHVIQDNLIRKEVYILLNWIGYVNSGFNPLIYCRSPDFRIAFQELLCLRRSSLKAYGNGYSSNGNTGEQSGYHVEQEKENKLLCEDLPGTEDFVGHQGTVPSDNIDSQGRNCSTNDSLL
HNF4A DNA FP: change in binding of human HNF4 alpha to DNA; actives 0.3% (n = 360,000); activity change, % at 10 µM; P41235; HNF4a-FITC DNA binding, fluorescence polarization, 1 h; AID 1224865; in the data active means activity change above about 30%, passing the limit was not always enough;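 further: controls were the assay level and a saturating level of protein; the project sought stronger binding though the title names inhibitors; some compounds called inactive have numbers as strong as hits; positive values seem to mean higher polarization but the record does not say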
Target sequence (P41235 whole entry, looked up): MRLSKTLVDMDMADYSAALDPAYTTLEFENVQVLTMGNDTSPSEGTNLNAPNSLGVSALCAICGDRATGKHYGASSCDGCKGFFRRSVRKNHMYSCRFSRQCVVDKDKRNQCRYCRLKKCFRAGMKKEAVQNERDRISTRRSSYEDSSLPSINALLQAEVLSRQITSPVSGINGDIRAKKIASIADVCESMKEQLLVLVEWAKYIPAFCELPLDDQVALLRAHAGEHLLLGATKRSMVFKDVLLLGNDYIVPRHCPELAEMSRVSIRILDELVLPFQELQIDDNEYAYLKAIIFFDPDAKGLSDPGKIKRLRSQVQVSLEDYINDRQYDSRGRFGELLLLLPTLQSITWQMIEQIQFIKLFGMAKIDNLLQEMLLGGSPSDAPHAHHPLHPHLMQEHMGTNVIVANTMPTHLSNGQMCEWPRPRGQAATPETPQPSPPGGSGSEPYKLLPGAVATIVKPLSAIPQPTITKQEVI
FGF22 binding: binders of recombinant human FGF22 by thermal shift; SYPRO orange fluorescence; percent of sucrose octasulfate shift, DMSO zero; actives 1.5% (n = 340,000); calls only at 9.99 µM; Q9HCT0;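 active means melting point raised past a set limit in the mean and every replicate; three in four hits are not shown here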
Ecoli growth: blocks Escherichia coli growth | actives 0.21% (n = 330,000) | OD600, 23 h; active compounds read low | OD600 absorbance (no concentration beside the values);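 active means OD600 absorbance below the run mean of sample wells minus 3.6 SD, in any replicate, cut at about 0.56 in these data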;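 further: stock transfer was 300 nL into about 60 µL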
UCH37 inh: human UCH37 deubiquitinating enzyme inhibition; actives 0.33% (n = 330,000); inhibition, % (test concentration not listed); Q9Y5K5; purified proteasome/UCH37, Ub-AMC cleavage fluorescence;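 active means mean of two replicates above 20%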;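 further: 0% = compound-free wells with enzyme and 100% = wells lacking proteasome; stock transfer was 100 nL into about 20 µL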
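Assay system: Proteasome-bound UCH37. Buffer or medium: pH 7.4 Tris-HCl (50 mM) with ovalbumin, ATP-MgCl2, DTT. Incubation: 30 min preincubation with enzyme, 25 min cleavage at room temperature. Measured by: fluorescence, ex 355 nm, em 460 nm. Read-out basis: percent inhibition. Control set: wells without proteasome as full block, compound-free enzyme plus substrate as uninhibited.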
Active calls of the source: *; i = inactive; nt = no result given.

SMILES	LANA-H2A inh	ALR H2O2 inh	Beta2AR agonist	HNF4A DNA FP	FGF22 binding	Ecoli growth	UCH37 inh
Cc1cc(NC(=O)C2CCC2)n(-c2ccccn2)n1	-2.3	8	1	0.9	nt	0.72	-0.1
CC(=O)N1c2ccc(S(=O)(=O)N3CCC(C(=O)N4CCN(c5cccc(C(F)(F)F)c5)CC4)CC3)cc2CC1C (stereo unspecified)	4.1	-10	6	-0.3	i	0.74	0.0
O=C(CCCN1C(=O)C2CC=CCC2C1=O)Nc1cccc(F)c1 (stereo unspecified)	-1.3	-2	-11	0.2	i	0.71	-1.7
CC(C)Oc1ccc(CNC(=S)N/N=C/c2ccc([N+](=O)[O-])cc2)cc1	-11	-3	-3	-0.5	i	nt	nt
CCOC(=O)C1=C(C)Nc2nc(C)nn2C1c1ccc(C)cc1 (stereo unspecified)	1.5	-10	-8	-1.6	i	0.74	-1.2
Cc1ccc(N(Cc2cc3ccccc3[nH]c2=O)C(=O)c2ccco2)c(C)c1	-2.6	-3	-7	-3.5	nt	0.72	0.7
O=C(Nc1nc2c(Br)cc(Br)cc2c(=O)s1)C1CCC1	2.0	67	2	0.0	i	0.65	2.9
CC(Sc1nnc(-c2ccccc2Br)o1)C(=O)N1CCOCC1 (stereo unspecified)	-0.9	-12	-6	2.0	i	0.69	1.6
CC1=NOC(=O)/C1=C\c1ccc(-c2ccccc2Br)o1	nt	nt	36	2.6	i	0.62	4.8
O=C(Nc1ccc(Cl)cn1)c1cccc(S(=O)(=O)N2CCCCC2)c1	nt	nt	2	-1.8	i	0.69	2.4
CCC(C)Nc1nc(-c2c[nH]c3ccccc23)cs1 (stereo unspecified)	0.0	-21	-58	17	i	nt	nt
CC(C)(C)OC(=O)NCCCC[C@H](NC(=O)[C@H](Cc1c[nH]c2ccccc12)NC(=O)OCc1ccccc1)C(=O)O	-4.4	1	-5	-4.6	i	0.66	1.3
CC(C)=CCc1c(O)cc(O)c2c(=O)c(O[C@@H]3O[C@@H](C)[C@H](O)[C@@H](O)[C@H]3O)c(-c3ccc(O)cc3)oc12	1.0	nt	2	-2.4	nt	0.67	3.5
COc1cc(OC)c(S(=O)(=O)NCc2cccnc2)cc1NC(C)=O	-0.1	nt	-1	4.7	i	0.68	1.9
O=C(Nc1nnc(C2=COCCO2)o1)c1ccc(S(=O)(=O)N2CCCC2)cc1	-10	2	0	-1.5	i	0.7	2.4
COc1ccc(C(=O)NCC(C)NC(=O)c2ccc(OC)cc2)cc1 (stereo unspecified)	1.4	-6	0	0.7	i	0.62	-0.2
Cc1ccc(S(=O)(=O)N(CC(=O)N/N=C/c2ccc(F)cc2)c2cccc3cccnc23)cc1	-7.0	-9	4	-3.5	nt	nt	nt
COC(=O)C(NC(=O)c1ccccc1)=C1CCCCC1	-0.2	2	-1	-2.3	nt	0.75	2.1
S=C(NC1CCCCC1)N1CCN(c2ccccn2)CC1	0.7	0	-23	2.6	i	0.7	-3.4
N#C/C(=C\c1ccc(O)c(O)c1)C(=O)Nc1ccccc1	1.6	99*	-7	3.8	i	nt	6.3
COc1ccc(Cc2nc3ccc(C(=O)NCC4COCCO4)cc3o2)cc1 (stereo unspecified)	3.4	0	-3	-0.3	i	0.68	1.7
CCc1cccc(CC)c1N(COC)C(=O)Cn1c(CO)nc2ccccc21	-0.4	-4	-7	-1.4	nt	0.67	2.9
CCOC(=O)/C(=N\Nc1cc(Cl)ccc1Cl)N1CCOCC1	-2.2	98*	8	0.4	i	nt	nt
CC(=Nc1ccccc1)C1=C(O)CCCC1=O	-2.9	-4	7	0.2	i	0.66	0.0
CC(=O)NCC(=O)NC1CCCc2c1cnn2-c1ccccc1F (stereo unspecified)	4.8	-2	-3	2.1	i	0.68	0.0
Cc1nc(SCC(=O)N(CC(C)C)C2CCS(=O)(=O)C2)c2ccccc2n1 (stereo unspecified)	0.6	-6	1	2.7	i	0.68	4.4
COc1ccc(NC(=O)N2CC(C)OC(C)C2)cc1OC (stereo unspecified)	4.2	-9	6	-5.1	nt	0.72	2.1
Cc1ccc2[nH]c3c(c2c1)CN(C(=O)CN1CCN(C(=O)c2ccco2)CC1)CC3	-3.3	-22	nt	nt	i	nt	nt
O=C(Nc1c(Cl)cccc1Cl)C1CCC1	4.8	-9	-3	0.2	nt	0.66	-0.2
Cc1ccc(OCC(=O)NCC(=O)n2nc(C)cc2C)cc1	0.9	-1	-4	-1.9	nt	0.67	1.6
CCSC1=N/C(=C\c2ccc(C(=O)O)cc2)C(=O)S1	2.1	71	3	-1.9	nt	0.73	7.6
CCOC(=O)C1CC2=C(CCCC2=O)N(Cc2ccccc2)C1=O (stereo unspecified)	nt	nt	-4	1.5	i	nt	nt
COc1cc(/C=N/NC(=O)c2cccc3ccccc23)cc(OC)c1OC	1.6	-2	-7	1.3	i	nt	nt
CN(N)c1nc(-c2ccccc2)cc(-c2ccccc2)n1	-0.4	nt	-5	-2.1	i	0.62	0.6
O=S(=O)(NCC(c1cccnc1)N1CCN(c2ccccc2)CC1)c1cccs1 (stereo unspecified)	2.1	98*	9	-0.6	nt	0.75	-3.7
CCn1c(Cc2ccccc2)nnc1SC(C)C(=O)NC1CC1 (stereo unspecified)	3.7	-1	-3	-0.3	i	0.67	0.7
CCNc1nc(Cl)nc(N(NC(C)=O)C(C)CC)n1 (stereo unspecified)	-5.4	-1	3	1.3	nt	0.71	1.8
COc1cc(S(=O)(=O)N2CC(=O)Nc3ccccc32)ccc1NC(C)=O	-1.3	-9	3	1.9	i	0.65	1.1
C/C(=N/NC(=O)c1cccc(N2CCCC2=O)c1)c1ccncc1	2.8	3	-1	0.8	i	nt	nt
CCn1c(=O)c(C(=O)NCc2ccc(Cl)cc2)c(O)c2ccccc21	-3.4	-10	-5	-3.3	i	0.7	3.0
CC(=O)c1ccc(S(=O)(=O)NCCC(=O)NCCc2c[nH]c3ccccc23)cc1	6.8	nt	-6	-3.4	i	0.7	2.4
NC(=O)C(=O)N/N=C/c1c[nH]c2ccc(Br)cc12	-3.5	-5	-1	2.3	i	nt	nt
CCn1cc(C(=O)N[C@@H](CCSC)C(=O)NCCOC)c(=O)c2cc3c(cc21)OCO3	0.6	2	-1	1.6	i	0.68	-0.4
COc1cc(NC(=O)C2CCN(S(=O)(=O)c3ccc4c(c3)CC(C)N4C(C)=O)CC2)cc(OC)c1OC (stereo unspecified)	0.5	-5	12	-3.0	i	0.67	3.5
Cc1cc(C)cc(NC(=O)COC(=O)c2cc(C)oc2C)c1	1.8	-14	1	-0.1	i	0.65	2.2
N#Cc1cccc(NC(=O)COC(=O)c2ccc[n+]([O-])c2)c1	1.7	1	6	4.1	i	0.68	0.2
C/C(=N\NC(=O)c1cccnc1)c1c(O)cc(C)oc1=O	-3.8	31	-1	-2.3	i	nt	nt
CCOc1ccccc1CNS(=O)(=O)c1cc(-c2cc(C)no2)ccc1C	-5.0	-12	-5	-1.3	i	0.68	1.1
CCOc1cc(-c2nc(-c3ccccc3)c(-c3cc([N+](=O)[O-])ccc3C)[nH]2)ccc1O	9.5	26	-2	-5.1	nt	0.74	4.0
O=C1c2ccccc2C(=O)N1CCOc1cccc(Br)c1	-25	-20	-6	-2.7	i	0.74	5.7
CC[C@@H](CCC=C(C)C)C(=O)N(Cc1ccccc1)c1ccccc1	-0.3	-7	6	-8.6	i	nt	3.8
COc1cccc(Nc2nnc(SCc3cc([N+](=O)[O-])cc4c3OCOC4)s2)c1	2.1	-15	0	-0.5	nt	0.7	-0.5
O=C(C1=C(O)C(=O)N(CCCn2ccnc2)C1c1ccccc1)c1ccco1 (stereo unspecified)	-4.6	-8	-5	-0.5	nt	0.69	11
O=C(NNC(=O)c1ccc2nonc2c1)Nc1ccc(Cl)cc1	3.7	-4	-1	2.9	i	0.67	4.0
c1csc(-c2csc3nc(CN4CCOCC4)nc(NCc4ccc5c(c4)OCO5)c23)c1	-6.6	-14	-5	1.9	nt	0.67	3.3
CCOC(=O)/C=C1\NC(C)(C)Cc2cc(OC)c(O)cc21	0.3	26	-11	-0.2	nt	0.65	11
CC(=O)Nc1ccc2[nH]c(C)cc(=O)c2c1	1.7	-4	-10	0.1	nt	0.74	-3.0
COc1ccc(S(=O)(=O)N2CCOCC2)cc1N=Nc1sc(N)nc1-c1ccccc1	-2.3	-6	6	1.4	i	0.71	3.4
O=C(Cc1c(F)cccc1Cl)NNC(=O)c1ccccc1Cl	-6.1	-5	-1	4.2	i	0.69	-1.9
O=C(CCc1ccccc1)Nc1nccs1	3.0	-7	-3	0.8	i	0.7	4.8

Random excerpt: two records from the list.
SMILES	LANA-H2A inh	ALR H2O2 inh	Beta2AR agonist	HNF4A DNA FP	FGF22 binding	Ecoli growth	UCH37 inh
CC(=O)Nc1ccc2[nH]c(C)cc(=O)c2c1	1.7	-4	-10	0.1	nt	0.74	-3.0
C/C(=N\NC(=O)c1cccnc1)c1c(O)cc(C)oc1=O	-3.8	31	-1	-2.3	i	nt	nt

More records.
SMILES	LANA-H2A inh	ALR H2O2 inh	Beta2AR agonist	HNF4A DNA FP	FGF22 binding	Ecoli growth	UCH37 inh
CC(C)c1nc(SCC(=O)Nc2ccc(N(C)C)cc2)c2ccccc2n1	-2.1	27	-17	-4.0	i	0.64	1.8
COc1cccc(NS(=O)(=O)c2ccc(S(=O)(=O)N3CCOCC3)cc2)c1	-7.0	-8	22	0.1	nt	0.68	0.5
O=C(CSc1nc2c([nH]c3ccccc32)c(=O)n1-c1cccc(Cl)c1)N1CCOCC1	0.3	-4	6	-7.4	i	0.8	5.2
Cc1ccc(S(=O)(=O)NCCNC(=O)c2ccccc2)cc1	-0.3	-6	3	0.0	nt	0.75	1.1
CC(=O)N1CCCc2cc(S(=O)(=O)N3CCCC3)ccc21	-2.9	-3	7	0.8	i	nt	nt
CC(C)(C)n1nc(Cc2cccc3ccccc23)c(C#N)c1N	2.9	-16	2	4.2	i	0.69	2.1
CC1(C)C2CCC1(C)C(NC(=O)CCN1CCCCC1)C2 (stereo unspecified)	5.5	-5	11	-3.3	nt	0.69	0.7
O=C(CCNS(=O)(=O)c1ccc2c(c1)CCC(=O)N2)NCc1cccnc1	2.6	-26	0	-2.0	nt	0.72	0.0
COc1cc(C(=O)Nn2c(CC(C)C)nc3ccccc3c2=O)cc(OC)c1OC	3.6	-4	-2	-4.5	i	0.67	1.6
CCOC(=O)CCSc1nc(C)c2ccccc2n1	-0.7	-13	4	0.8	nt	0.72	-3.0
COc1cc(/C=C/c2ccc3cccc(OC)c3n2)c(OC(C)=O)c([N+](=O)[O-])c1	-2.8	74	13	1.1	nt	0.72	3.7
Nc1ncncc1-c1ccc([N+](=O)[O-])cc1	4.5	-25	9	0.0	i	0.36*	2.3
CCCNC(=O)C(Cc1ccc(I)cc1)NC(=O)C1CC1 (stereo unspecified)	-1.1	-11	5	0.6	nt	0.65	3.9
O=C(Oc1ccc(OC(=O)C2CCC2)cc1)C1CCC1	2.6	-4	-4	-0.2	i	0.71	4.0
CCCn1c(=O)c(C(=O)N/N=C/c2ccccc2F)c(O)c2ccccc21	1.0	-3	-2	3.8	i	nt	nt
CCc1ccccc1N(CC(=O)NCC1CCCO1)C(=O)CCC(=O)Nc1cc(C)on1 (stereo unspecified)	-2.6	nt	3	0.9	i	0.66	2.2
COc1cccc(C2OC(=O)c3ccccc3N2C(C)=O)c1OC(C)=O (stereo unspecified)	3.1	-1	17	1.8	nt	0.68	-0.3
CCC1CCCCN1CCCNC(=O)CNC(=O)c1nn(-c2ccc(OC)c(Cl)c2)c(=O)c2ccccc12 (stereo unspecified)	7.0	-16	5	6.1	i	0.7	0.7
C/C(=N\NC(=O)c1ccccc1O)c1c(O)cc(C)oc1=O	0.7	3	16	0.3	nt	nt	nt
CCN(C1CCS(=O)(=O)C1)S(=O)(=O)c1cccc([N+](=O)[O-])c1 (stereo unspecified)	3.0	-4	3	1.4	i	0.67	1.0

Not all compounds are listed; the hit share may differ from the screen's.
